Assay outcomes from PubChem.
gsp antag – antagonizes gsp, the McCune-Albright syndrome mutation; gsp-mutant cells, cAMP HTRF, 30 min; control for the full effect not named in the record; Potency, µM (series often up to 76.9 µM), for the others: at the highest dose activity change, negative = inhibition, actives largely listed as inhibitors; hit rate 0.4% among 340,000; AID 624288; active = falling curve of any shape with a large fitted effect; inconclusive = falling curve, mostly with a smaller effect; inactive = flat or rising curve; cell line not stated here;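 also: intracellular cAMP measured with PDE inhibitor Ro 20-1724 present during compound exposure; potency is read from the fitted curve at half-maximal effect; % is scaled to controls: 0 for no effect and ±100 for the full control effect; nearly all actives have a fitted effect of over 65% in size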
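HTRF cAMP read-out (cAMP-d2 plus anti-cAMP antibody-K in lysis buffer, 30 min RT). Before lysis, cells are exposed to compounds with […] for 30 min at 37C in DPBS containing Ca/Mg, BSA and Tween 20.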
TRPV1 potentiator – human TRPV1 potentiation; potentiation, % at 8.33 µM; hit rate 0.02% among 320,000; AID 540277; Q8NER1; TRPV1-expressing cells, Fluo-8 calcium influx, capsaicin EC20 potentiation; host cell line not named in the record; control for the full effect not named in the record; active means potentiation above 80%; inconclusive means 30% to 80%; inactive means below 30%; also: 0% is about no effect
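Fluo-8 calcium influx in TRPV1-expressing cells, kinetic read (ex 480/em 520 nm). Compound added and read 3 min for agonist activity, followed by capsaicin at EC20 final and 2 min further read for enhancement.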
gsp agonist – gsp mutant agonism | gsp mutant cells, cAMP HTRF, 30 min; control for the full effect not named in the record | Potency, µM (titrated, usually from 76.9 µM), for the others: at the highest dose activation (cAMP increase), most hits filed as activators | hit rate 0.13% among 340,000; active = well fitted activation curve with a large enough effect; inconclusive = small, poorly fitted or top-dose-only effect, or another doubt; inactive = no such curve, though single readings can be large or run the other way; cell line not stated here;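 also: phosphodiesterase inhibitor Ro 20-1724 added with compounds to block cAMP breakdown; potency is read from the fitted curve at half-maximal effect; nearly all actives have a fitted effect of over 60% in size; about a fifth of the inactives were tested at one dose only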
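Cells in DMEM/10% FBS with G418 were pretreated with compounds in DMSO plus […] (300 uM stock) for 30 min at 37C. cAMP was measured by HTRF (cAMP-d2 plus anti-cAMP antibody-K) after 30 min at room temperature.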
D2 PAM – positive allosteric modulators of human D2 dopamine receptor | P14416 | DiscoveRx D2 beta-arrestin cells, luminescence, 90 min; 100% = 57 uM dopamine signal | potentiation, % (no concentration beside the values) | hit rate 0.23% among 360,000 | AID 624464; active = potentiation of 50% or more; inconclusive = 30% to 50%; inactive = 30% or less;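 also: compound concentration not given in the record; tested on top of an EC20 dose of dopamine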
Target sequence (P14416 whole entry, looked up): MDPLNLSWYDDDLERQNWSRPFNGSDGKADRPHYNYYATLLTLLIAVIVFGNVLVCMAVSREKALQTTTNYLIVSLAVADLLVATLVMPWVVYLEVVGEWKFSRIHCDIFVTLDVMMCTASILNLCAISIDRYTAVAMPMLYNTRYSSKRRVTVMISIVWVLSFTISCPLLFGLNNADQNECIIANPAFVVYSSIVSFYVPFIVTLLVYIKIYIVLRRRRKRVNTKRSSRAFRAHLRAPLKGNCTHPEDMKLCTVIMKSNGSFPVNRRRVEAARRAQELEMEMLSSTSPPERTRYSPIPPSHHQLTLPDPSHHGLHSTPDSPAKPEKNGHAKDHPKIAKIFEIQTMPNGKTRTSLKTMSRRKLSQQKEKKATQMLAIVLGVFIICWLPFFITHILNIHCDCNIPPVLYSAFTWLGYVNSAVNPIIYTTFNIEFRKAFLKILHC
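PathHunter beta-arrestin assay in DiscoveRx D2 cells. Compounds were added with an EC20 of dopamine (50 nM final) for 90 min at 37 deg C. Luminescence was read 1 h after detection reagent, with 57 uM dopamine as the EC100 control.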
Menin-MLL FL inh – inhibitors of human menin-MLL interaction, wild-type MLL peptide | FP activity change, % at 61.4 µM | Fluorescence polarization, fluorescein-MLL peptide displacement from menin | 290,000 tested, under 10 active; inconclusive = falling polarisation curve, or a change in total fluorescence; inactive = total fluorescence flat and polarisation flat or rising; no compound was filed as active; the % refers to the polarisation; negative = inhibition;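 also: % of control where 0% means no effect; inhibitors lower the polarisation; unlabelled MLL peptide was the positive control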
ClpP mod – qHTS Assay for Activators of ClpP; Potency, µM (highest dose often 57.5 µM), for inactives: top-dose activity change, negative = active; hit rate 1.9% among 340,000; AID 651965, 2013; ATP-dependent Clp protease proteolytic subunit (Bacillus subtilis (strain 168)), P80244; purified B. subtilis ClpP, FRET peptide cleavage, 20 min; active = well fitted falling curve with a large enough effect; inconclusive = small, poorly fitted or top-dose-only effect; inactive = no such curve, though single readings can be large or run the other way; also: potency is read from the fitted curve at half-maximal effect; the source files actives as falling curves though it sought activators and does not explain the sign; nearly all actives have a fitted effect of over 65% in size; many hits overshoot -100%
Target sequence (P80244 whole entry, looked up): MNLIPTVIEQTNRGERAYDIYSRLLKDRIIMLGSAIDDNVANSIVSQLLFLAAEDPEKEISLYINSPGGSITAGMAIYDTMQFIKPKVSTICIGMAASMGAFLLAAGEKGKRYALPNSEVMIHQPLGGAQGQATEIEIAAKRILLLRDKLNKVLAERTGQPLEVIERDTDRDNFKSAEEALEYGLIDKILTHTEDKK
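Buffer: 100 mM Tris/HCl pH8, 100 mM KCl, 0.05% low protease BSA, 2.5% glycerol, 0.01% Tween-20. ClpP 10 microg/mL final; 20 min RT; delta FRET normalized to ADEP and DMSO controls.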
Sfp inh – Sfp phosphopantetheinyl transferase inhibition; Biochemical Sfp PPTase activity, qHTS; Potency, µM, without a hit: max response, negative = inhibition, hits mostly inhibitors; hit rate 3.5% among 310,000; active = well fitted inhibition curve with a large enough effect; inconclusive = small, poorly fitted or top-dose-only effect, or another doubt; inactive = no such curve, though single readings can be large or run the other way;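 also: the enzyme is Sfp with the accession as filed and its product quenches rhodamine fluorescence; potency is read from the fitted curve at half-maximal effect; 0% = enzyme reaction without inhibitor and -100% = no enzyme wells; top concentration of the series not given in the record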
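Sfp 15 nM + cpd, 15 min RT; start w/ rhodamine-CoA 5 uM, BHQ-2-YbbR 12.5 uM (final); 50 mM Hepes pH 7.6, 10 mM MgCl2, 0.01% NP-40, 0.01% BSA; read 525/598 nm at 0 and 30 min.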
* = called active by the depositor; ? = inconclusive; . = no result given; [ ] = remark or other dose.

SMILES | gsp antag | TRPV1 potentiator | gsp agonist | D2 PAM | Menin-MLL FL inh | ClpP mod | Sfp inh
C/C(=N\NC(=O)C(NC(=O)c1ccccc1)C(C)C)c1ccccc1 (stereo unspecified) | -6.7% | 2.0 | -34.6%[inhibitor] | -1.5 | 3.7 | -1.6% | 2.7%
CCOCCCNC(=O)C1CCN(Cc2ccc(OCc3ccccc3)c(OC)c2)CC1 | 8.0% | 1.1 | 19.2% | 1.0 | 3.8 | 0.5% | -1.3%
CC(=O)c1ccc(N=C2SCCCN2C(=O)C2CCCCC2)cc1 | 2.6% | 3.6 | -10.1% | -4.2 | -0.2 | -0.6% | 10.8%
O=C(NCc1ccc2c(c1)OCO2)c1cccc(C(=O)NCc2ccc3c(c2)OCO3)c1 | -17.0% | -4.5 | -33.4%[inhibitor] | 0.1 | 2.3 | -0.8% | 19.0%
CCOC(=O)N1CCN(c2cc(N3CCOCC3)c(F)cc2[N+](=O)[O-])CC1 | -4.2% | -2.6 | 9.0%[15.4 µM] | -5.1 | 6.1 | -13.8% | 6.3%
C/C(CC(=O)NCc1ccco1)=N\NC(=O)Cc1ccc(-c2ccccc2)cc1 | 5.7% | 1.6 | -12.5%[15.4 µM] | -6.4 | -4.8 | 0.5% | 13.3%
O=[N+]([O-])c1ccc(N2CCN(Cc3ccc([N+](=O)[O-])o3)CC2)cc1 | 8.8% | -7.2 | -18.7% | 5.8 | -1.0 | . | -38.7%
CCc1cn([C@H]2C[C@H](O)[C@@H](CO)O2)c(=O)[nH]c1=O | 3.6% | 14.7 | . | 2.9 | -0.9 | 0.7% | 12.9%
COc1ccc(CC(=O)N2CCc3cc(OC)c(OC)cc3C2)cc1 | 3.5% | 3.2 | -12.5% | 7.9 | -0.6 | . | 2.6%
COc1ccc(C2(C(=O)N3CCC(n4nc(-c5ccccc5)oc4=O)CC3)CC2)cc1 | 8.3% | 12.4 | -39.5%[inhibitor] | -1.5 | . | 2.2% | 3.6%
COc1ccc(S(=O)(=O)N2CCCCCC2)cc1C(=O)N(C)CC(=O)Nc1ccccc1Br | -8.6% | 9.8 | 5.0% | 6.3 | . | 2.6% | .
Cc1cc(C)n(-c2nc3ccccc3s2)n1 | -14.9% | -8.2 | -29.7% | 0.6 | 2.0 | -0.7% | -2.7%
O=C(CCn1cccn1)Nc1ccc2c(c1)OCCO2 | 5.1% | -18.4 | -6.5% | 2.8 | . | -1.8% | 11.9%
Cc1cc(C(=O)Nc2cccc(C)c2C)c2ccccc2n1 | 0.2% | 0.8 | -31.9%[inhibitor] | -1.7 | 4.1 | -1.7% | 16.8%
Cc1cccc(NC(=S)NNC(=S)NCc2ccccc2)c1 | 4.6% | ? | 7.5% | -11.9 | -0.8 | -0.1% | 79.4µM*
CN(C(=O)COC(=O)CNC(=O)c1sc2ccccc2c1Cl)C1CCS(=O)(=O)C1 (stereo unspecified) | -11.4% | . | -1.0%[15.4 µM] | -7.2 | . | -7.5% | .
COc1ccc(CN2C(=O)C(CC(=O)NC3CC3)CC(C(=O)N(C)C)=C2C)cc1 (stereo unspecified) | . | . | -16.0% | 1.8 | . | 1.0% | .
O=C(NC(=S)Nc1sc2c(c1C(=O)O)CCCC2)c1ccccc1 | -5.5% | -1.5 | 9.8% | -9.8 | 1.2 | . | 18.4%
Cn1c(SCC(=O)O)nnc1-c1cccc(NC(=O)c2cccc3ccccc23)c1 | -4.2% | 11.1 | ? | -7.8 | 0.2 | -1.4% | -5.0%
CSc1nnc(Nc2ccccc2C)s1 | 11.6% | 2.6 | -21.0% | -16.7 | -1.5 | 4.5% | 16.7%
CCN(CC)S(=O)(=O)c1cccc(C(=O)OCC(=O)NCCN2C(=O)CSC2=O)c1 | 9.4% | 2.7 | ? | -8.6 | . | 0.8% | .
CN(C)CCCn1c(=O)n(C2CCCCC2)c(=O)c2c3c(sc21)CCCCC3 | 2.4% | . | -7.8%[15.4 µM] | -7.8 | . | . | .
CC1CC(C)(C)NC(=S)N1CCC(=O)N1c2ccccc2CC1C (stereo unspecified) | 1.7% | 2.2 | -9.5% | 0.0 | -0.2 | . | 19.6%
CCOc1ccccc1C(=O)OCC(=O)Nc1cc(Cl)ccc1Oc1ccccc1 | -7.3% | -7.6 | -21.2% | -1.6 | -2.4 | -1.8% | ?
COc1cc(NC(=O)c2ccccc2)ccc1NC(=O)Cc1ccccc1 | -11.2% | 6.2 | 7.2% | -10.0 | -0.6 | . | 7.5%
CC(C)C(NC(=O)OC(C)(C)C)C(=O)NC(CCC(=O)OCc1ccccc1)C(N)=O (stereo unspecified) | 5.3% | -8.0 | 1.5% | -8.2 | -3.8 | -0.7% | 18.2%
Cc1ccc(-c2nn(C)c(=O)c3ccccc23)cc1CNC(=O)CSc1nc2ccccc2o1 | -16.1% | 2.2 | -5.4% | -3.6 | -0.4 | -2.2% | 1.8%
COc1ccc(C(=O)NC2CCCCCC2)cc1OC1CCN(C(C)=O)CC1 | -16.2% | -0.3 | 5.4% | -4.2 | 0.1 | -6.0% | 8.0%
O=[N+]([O-])c1ccccc1/C=C\C=N\N1CCN(c2ccccc2)CC1 | -10.6% | -12.7 | -3.2% | -3.8 | -0.8 | 2.3% | 10.5%
Oc1ccccc1/C=N/n1c(-c2cccs2)n[nH]c1=S | -18.8% | 14.2 | -4.3% | 11.9 | -1.0 | 1.8% | ?
O=C(Nc1ccccc1)c1ccccc1N=Cc1ccccc1O | -1.2% | -12.4 | -36.0%[inhibitor] | -19.4 | -1.2 | 35.5µM* | -0.4%
O=C(CN(Cc1ccccc1)S(=O)(=O)c1ccccc1)N/N=C/c1ccc2c(c1)OCO2 | -4.8% | -6.2 | -36.4%[inhibitor] | 2.2 | 1.9 | -5.3% | 18.4%
CCc1ncc(C(O)c2cccc(OC)c2OC)n1C (stereo unspecified) | 5.0% | 0.8 | 13.3% | -5.3 | 6.5 | -2.2% | 9.0%
O=C(NC1CCCCC1)Oc1cccc2ccccc12 | 1.5% | 3.9 | -2.5%[15.4 µM] | -5.2 | 0.4 | . | 16.4%
COc1ccc([C@H]2CC(=O)C=C(c3ccc(CO)cc3)C2)cc1 | -12.4% | -22.8 | ? | -6.2 | . | -0.8% | .
COc1ccc(NC(=S)N(CCCN2CCCC2)Cc2cccs2)cc1 | 7.0% | -8.7 | -26.1%[15.4 µM] | -12.8 | . | -16.0% | -7.4%
Cc1ccc(-n2ncc3c(=O)n(CC(=O)N4CCN(C(=O)c5ccco5)CC4)cnc32)cc1 | 1.7% | 0.6 | -35.4%[inhibitor] | 2.0 | . | -17.7% | .
CN1C(C(=O)NCc2cccc(Br)c2)CC2Cn3c(nc4cc(Cl)c(Cl)cc43)C21 (stereo unspecified) | -12.0% | 9.6 | . | -14.0 | 13.9 | -1.7% | -10.6%
CN(CCC1CCOCC1)C(=O)C1CCC(=O)N(CCc2ccc(Cl)cc2)C1 (stereo unspecified) | -0.9% | 1.9 | 14.0% | 0.5 | . | 1.1% | 9.4%
COc1ccc(C(=O)C(C)N(C(=O)c2ccc(Cl)cc2Cl)N2C(=O)C3C4C=CC(C4)C3C2=O)cc1 (stereo unspecified) | -13.3% | 1.7 | -12.0% | -13.0 | -1.3 | 0.8% | 15.8%
COc1ccc(C(=O)N(Cc2ccccc2)c2cccc(C)c2)c(OC)c1OC | -21.4% | 0.4 | 11.1% | -8.2 | . | 2.3% | 1.2%
Clc1ccccc1-c1ncnc2ccc(Br)cc12 | 0.1% | 4.5 | 11.0%[15.4 µM] | 0.5 | 0.1 | . | 7.7%
Cc1cc(O)c(C=O)c2c1C(=O)Oc1c(CO)c(O)c3c(c1O2)C(O)OC3=O (stereo unspecified) | -2.3% | 13.2 | . | -21.2 | 7.6 | 2.1% | 14.1µM*
Cc1cc(SCC(=O)c2cccc([N+](=O)[O-])c2)nc(=O)[nH]1 | -1.3% | 8.7 | 19.3% | -4.5 | . | 0.6% | 44.7µM*
COc1ccc(NC(=O)C2CCN(C(=O)NCc3ccccc3)CC2)cc1 | 2.9% | -11.5 | 0.0% | -9.7 | 5.4 | -0.8% | -0.9%
Cc1cc(C(=O)CN(Cc2ccc(F)cc2)S(=O)(=O)c2ccc3c(c2)OCCO3)c(C)n1C | ? | 10.9 | -3.0% | -9.9 | 5.3 | -2.2% | -1.6%
O=C(C[N+]1(CC#Cc2ccccc2)CCCCC1)c1ccccc1 | 4.7% | -8.0 | -40.4%[inhibitor] | -4.4 | 4.5 | -0.2% | 13.8%
Cc1ccc(OCC(=O)Nc2ccc3c(c2)nc(CCN2CCN(C)CC2)n3C)cc1 | 9.7% | -1.8 | 0.6% | -5.6 | 1.4 | -3.1% | 14.5%
CCc1ccc(NC(=O)C(C)OC(=O)Cc2cc(OC)c(OC)c(OC)c2)cc1 (stereo unspecified) | 6.6% | . | -11.4%[15.4 µM] | 5.0 | . | -5.2% | .
O=c1cc(O)c2sc3nc4c(c(C(F)(F)F)c3c2[nH]1)CCCCC4 | -4.8% | 22.0 | -15.2%[15.4 µM] | 0.4 | -0.1 | . | 7.3%
COc1cc(C(C(=O)NC2CCCC2)N(C(=O)c2ccco2)c2ccccc2C(C)=O)cc(OC)c1OC (stereo unspecified) | 10.8% | -3.5 | -10.7% | -3.4 | 5.8 | . | 9.7%
CCOc1ccc(C(O)c2nccn2Cc2ccccc2)cc1 (stereo unspecified) | -3.0% | 0.2 | -0.5% | -2.7 | 0.5 | -1.9% | 10.2%
CCc1ccccc1NC(=O)C1NC(=O)CC1c1ccccc1 (stereo unspecified) | ? | 7.8 | -2.7% | 3.4 | -1.8 | 0.1% | -0.3%
Cc1ccc2c(c1)C1CN(C)CCC1N2C(=O)c1ccccc1NS(=O)(=O)c1ccc(F)cc1 (stereo unspecified) | 10.2% | -10.8 | -2.0% | -1.5 | -2.2 | 1.7% | 29.7%

Not a hit list; any-hit rate near 5.1%.
